VDR inhibitor: vitamin D3 receptor (human) inhibition; 400,000 tested, 0.93% active; Potency, µM, for the others: max response, negative = inhibition, actives largely listed as inhibitors; P11473; AID 504847; VDR-SRC2-3 peptide fluorescence polarization, 2 h; active = well fitted inhibition curve with a large enough effect; note: series mostly up to about 120 µM
Target sequence (P11473 whole entry, looked up): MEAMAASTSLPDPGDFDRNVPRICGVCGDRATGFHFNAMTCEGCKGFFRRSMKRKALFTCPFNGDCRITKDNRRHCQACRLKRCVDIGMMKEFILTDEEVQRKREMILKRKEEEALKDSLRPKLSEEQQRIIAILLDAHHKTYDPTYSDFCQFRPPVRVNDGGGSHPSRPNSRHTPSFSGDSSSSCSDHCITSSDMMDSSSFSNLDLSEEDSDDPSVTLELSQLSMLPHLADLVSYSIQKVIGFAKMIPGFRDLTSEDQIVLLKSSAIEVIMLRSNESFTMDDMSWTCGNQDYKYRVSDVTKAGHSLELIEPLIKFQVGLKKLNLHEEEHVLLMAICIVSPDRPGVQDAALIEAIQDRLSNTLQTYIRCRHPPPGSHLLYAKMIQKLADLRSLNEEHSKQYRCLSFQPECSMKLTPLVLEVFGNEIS
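VDR–SRC2-3 interaction, FP format. Cmpds 23 nl via pintool, brief spin, 2 h ambient incubation.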
* marks the source's active call; other numbers are inactive results; & = joins results of further samples; [ ] = dose if it differs, or a comment. % is set by controls: 0 for no effect and ±100 for the full control effect; potency is the fitted concentration of half-maximal effect.

SMILES	VDR inhibitor
O=C(NC1CC1)c1ccc(NS(=O)(=O)c2ccccc2)cc1	15%
O=C(O)CCNC1C=CS(=O)(=O)C1 (configuration not stated)	17%
COc1ccc(OC(=O)c2cc3ccccc3o2)cc1	14%
COc1ccc2cc(C(C)C(=O)NC3CCC(O)CC3)ccc2c1 (configuration not stated)	-4%
CCN(CC)S(=O)(=O)c1ccc(-c2nnc(SCC(=O)N3c4ccccc4CC3C)o2)cc1 (configuration not stated)	-1%
O=c1c2c(n3cnnc3n1C1CCCCC1)-c1ccccc1CC21CCCCC1	20%
CCCCNS(=O)(=O)CCNCc1ccc(OC)cc1	-1%
CCOc1ccc2ccccc2c1/C=N\NC(=O)c1ccc([N+](=O)[O-])cc1	1%
COc1ccc(Nc2ncnc3c2nc2n3CCCCC2)cc1	8%
CCOC(=O)C1(Cc2ccccc2)CCCN(Cc2cnn(CC)c2)C1 (configuration not stated)	-10%
COCCN(CCOC)C(=O)c1sc2nc(-c3ccccc3)cn2c1C	1%
CN(CC(=O)NC(=O)Nc1ccccc1F)Cc1ccccc1F	-6%
C=CCn1c(-c2cccc(Cl)c2)n[nH]c1=S	-1%
Nc1ccc(C(=O)NNC(=O)C2COc3ccccc3O2)cc1[N+](=O)[O-] (configuration not stated)	0%
Cc1ccc(NC(=O)CN(C)C(=O)Cc2c[nH]c3ccccc23)cc1	-20%
COc1ccc(N2CCN(S(=O)(=O)c3ccc(F)c(C(=O)Nc4ccccc4Cl)c3)CC2)cc1	1%
Cc1c(CC(=O)N2CCCCC2)c(=O)oc2c(C)c3occ(C(C)(C)C)c3cc12	0%
CCOc1ccc(CCNC(=O)CSc2ncn[nH]2)cc1OCC	-8%
Clc1ccccc1CNCc1ccncc1	1%
CCC(=O)Oc1ccc2ccccc2c1CNC(=O)c1ccccc1	11%
O=C(COc1ccccc1Cl)NCCCNC(=O)c1ccncc1	-4%
COC(=O)CCCC1=CC2=C(c3ccccc3)C(=O)C(C)(OC(=O)C3CCCC3)C(=O)C2=CN1Cc1ccco1 (configuration not stated)	-13%
CCOc1ccc(NC(=O)CN(C)C(=O)Cc2ccsc2)cc1OCC	-11%
O=C(NCCc1cccc(Cl)c1)c1cc([N+](=O)[O-])ccc1Cl	2%
COc1ccc(NC(=O)C2CCCN(S(=O)(=O)c3c(C)n[nH]c3C)C2)c(OC)c1 (configuration not stated)	4%
Cc1cccc(C(=O)Nc2ccc(S(=O)(=O)N3CCOCC3)cc2)c1[N+](=O)[O-]	14%
Cc1ccccc1C(=O)N1CC(=O)Nc2ccc(F)cc2C1c1ccccc1 (configuration not stated)	20%
CC(C)(C)C(=O)COC(=O)C1CC(=O)N(c2ccccc2)C1 (configuration not stated)	-6%
COC(=O)[C@H](Cc1ccccc1)NC(=O)NCc1cccs1	-4%
CCCCC(=O)Nc1cc([N+](=O)[O-])ccc1Cl	-3%
COc1cc(-c2nnc(SCCOc3ccc(Cl)cc3)o2)cc(OC)c1OC	17%
O=S(=O)(Nc1cccc(S(=O)(=O)N2CCCC2)c1)c1ccc(F)cc1	-6%
COc1cc(OC)cc(C(=O)N[C@H](C(=O)OCC(=O)Nc2ccc(C)cc2C)C(C)C)c1	-12%
CCOc1ccc(C(C)=O)cc1COc1cccnc1[N+](=O)[O-]	-6%
N#Cc1c(N)nc2c(c1N)CC(CCl)O2 (configuration not stated)	11%
Cc1ccc(C(=O)O)cc1-n1c(C)ccc1-c1ccccc1	-10%
Cc1csc(NC(=O)CSc2ncc(-c3ccccc3)[nH]2)n1	-12%
CC1CCN(C(=O)CSc2nnc(CNC(=O)c3ccc(S(=O)(=O)N(C)C)cc3)o2)CC1	0%
COc1ccc(CCNC(=O)c2cc(S(=O)(=O)N3CCOCC3)ccc2N2CCCC2)cc1OC	-3%
Cc1ccccc1C1CC(=O)NC2=C1C(=O)CCC2 (configuration not stated)	-7%
COc1ccc(S(=O)(=O)NCC2CCCN(C(=O)c3ccccc3)C2)cc1 (configuration not stated)	2%
CC(=Nc1ccccc1C(F)(F)F)c1ccncc1	-1%
CCC(CC)C(=O)N1CC(=O)Nc2ccc(Br)cc2C1c1ccccc1 (configuration not stated)	-19%
CN(C)c1ccc(/C=N/NC(=O)c2ccn(C)n2)cc1	-9%
CCc1noc(C)c1C(=O)N1CCN(S(=O)(=O)c2c(C)c(C)cc(C)c2C)CC1	-15%

Sorted by heavy-atom count (smallest number first): some entries from above.
SMILES	VDR inhibitor
N#Cc1c(N)nc2c(c1N)CC(CCl)O2 (configuration not stated)	11%
CCCCC(=O)Nc1cc([N+](=O)[O-])ccc1Cl	-3%
Cc1ccccc1C1CC(=O)NC2=C1C(=O)CCC2 (configuration not stated)	-7%
CN(C)c1ccc(/C=N/NC(=O)c2ccn(C)n2)cc1	-9%
CC(C)(C)C(=O)COC(=O)C1CC(=O)N(c2ccccc2)C1 (configuration not stated)	-6%
CCOc1ccc(C(C)=O)cc1COc1cccnc1[N+](=O)[O-]	-6%
O=S(=O)(Nc1cccc(S(=O)(=O)N2CCCC2)c1)c1ccc(F)cc1	-6%
CCC(CC)C(=O)N1CC(=O)Nc2ccc(Br)cc2C1c1ccccc1 (configuration not stated)	-19%
COc1ccc(S(=O)(=O)NCC2CCCN(C(=O)c3ccccc3)C2)cc1 (configuration not stated)	2%
COc1cc(-c2nnc(SCCOc3ccc(Cl)cc3)o2)cc(OC)c1OC	17%
CCc1noc(C)c1C(=O)N1CCN(S(=O)(=O)c2c(C)c(C)cc(C)c2C)CC1	-15%
COc1cc(OC)cc(C(=O)N[C@H](C(=O)OCC(=O)Nc2ccc(C)cc2C)C(C)C)c1	-12%
COc1ccc(CCNC(=O)c2cc(S(=O)(=O)N3CCOCC3)ccc2N2CCCC2)cc1OC	-3%

(next part)
SMILES	VDR inhibitor
C=CCNC(=O)C1CC(=O)N(c2ccc(OCC(=O)Nc3ccc(CC)cc3)cc2)C1 (configuration not stated)	18%
O=c1c2ccccc2nnn1CSc1nnc(COc2ccc(Cl)cc2)n1Cc1ccco1	-4%
CCc1ccccc1NS(=O)(=O)c1ccc2oc(=O)c3ncn(C)c3c2c1	-2%
O=C(c1c(F)cccc1F)N1CCN(S(=O)(=O)c2ccc3c(c2)OCCO3)CC1	-17%
COC(=O)c1cccc(NC(=O)C(C)(C)C)c1	7%
CC(=O)c1ccc(NC2c3ncccc3C(=O)N2Cc2ccc(F)cc2)cc1 (configuration not stated)	-7%
CCOC(=O)C1(C(=O)OCC)C(c2ccccc2)CC(O)N1C(C)=O (configuration not stated)	1%
COc1cc(NS(=O)(=O)c2ccc(NC(=O)/C=C/C(=O)O)cc2)nc(OC)n1	-7%
N#Cc1cccc(NC(=O)CSc2sc3c(O)cc(=O)[nH]c3c2C#N)c1	-4%
COc1ccc(NC(=O)CSc2nnc(CCC(=O)Nc3ccc(C)c(Cl)c3)n2C)cc1	4%
CN(CC(=O)Nc1ccc(F)cc1)C(=O)COC(=O)C1CCN(c2ccc(C(F)(F)F)cn2)CC1	-5%
C=CCn1c(CC(C)(C)C)nc2ccccc21	-21%
CC(C)c1cccc(C(C)C)c1NC(=O)COC(=O)c1ccc(OCC(=O)Nc2cccc(C(F)(F)F)c2)cc1	-3%
Cc1cc(C(=O)CN2C(=O)C(=O)N(Cc3ccco3)C2=O)c(C)n1CCc1ccccc1	-23%
COc1cc(N2CCOCC2)ncn1	7%
CC(=O)c1ccc(OCc2cc(C(=O)NCCc3ccc(Cl)cc3)no2)cc1	-16%
COc1ccc(NC(=S)N(CCc2nc3cc(C)c(C)cc3[nH]2)Cc2cccnc2)cc1	0%
O=C1C2C3CCCC3=C3CCCC3C2C(=O)N1c1cccc(Cl)c1 (configuration not stated)	5%
COc1cc(C(=O)Nc2ccc(C#N)cc2)c([N+](=O)[O-])cc1OC	14%
COc1c(C)cccc1C(=O)NC(=S)Nc1ccccc1N1CCCC1	-4%
CN(CCC#N)S(=O)(=O)c1ccc2[nH]cc(C(=O)NCCc3ccccc3)c(=O)c2c1	-26%
Cn1cccc1Cc1nnc(SCC(=O)NCc2ccco2)n1CCc1ccccc1	9%
CC(/C=C/C=C/c1ccccc1)=N/NC(=O)CNc1ccccc1C	15%
Cc1ccccc1NC(=O)Cn1c(=O)n(Cc2ccccc2)c(=O)c2sc3ccccc3c21	0%
CCOC(=O)c1cc(NC(=O)c2ccc(Cl)cc2)c(=O)n2c1oc1ccccc12	-1%
COc1ccc(/C(C)=N/Nc2nc3ccccc3n3cnnc23)cc1OC	-8%
COC(=O)c1cc(C(=O)Nc2cccc(C)n2)cc([N+](=O)[O-])c1	7%
O=C1CC(c2ccco2)CC(O)=C1C=NCC1CCNCC1 (configuration not stated)	5%
COc1cc(CNn2cn[nH]c2=S)cc(Br)c1OCc1ccccc1F	-23%
COC(=O)CCCN=C1SCCN1Cc1ccccc1	-10%
Cc1ccc(-n2ncc(C(=O)NCc3ccco3)c2C2CCN(C(=O)OC(C)(C)C)CC2)cc1C	3%
CCOc1ccc(N2C(=O)CC(N3CCC(NC(=O)Nc4ccccc4)CC3)C2=O)cc1 (configuration not stated)	4%
C=CCOn1c(=O)c(-c2ccc(Cl)cc2)[n+]([O-])c2ccccc21	17%
COc1cccc(-c2nc(CS(=O)CC(=O)NCCc3ccc(C)cc3)c(C)o2)c1 (configuration not stated)	-13%
CC(NC(=O)/C(=C\c1cccc([N+](=O)[O-])c1)NC(=O)c1ccco1)C(=O)O (configuration not stated)	-18%
CCOc1ccc(S(=O)(=O)Nc2ccc(S(=O)(=O)Nc3cc(OC)ccc3OC)cc2)cc1	2%
O=C(c1ccccc1Cl)N1CCCCC1CCN1CCCCC1 (configuration not stated)	8%
O=C(C(c1ccccc1)c1ccccc1)N1CCOCC1	-6%
N/C(Cc1nc(-c2ccc(Br)cc2)cs1)=N\O	-3%
COc1ccc(-n2nc(C(=O)NCC(=O)NCCCN3CC(C)CC(C)C3)c3ccccc3c2=O)cc1 (configuration not stated)	11%
COc1ccc(-c2oc3c(OC)c(OC)c(OC)c(O)c3c(=O)c2OC)cc1OC	-17%
CCN(Cc1nc(-c2ccc(Cl)cc2)no1)CC1CCCO1 (configuration not stated)	1%
CCOC(=O)c1cc(S(=O)(=O)NCc2cccc(Cl)c2)[nH]n1	2%
CCCCCCSc1cc(-c2nc3ccc(Cl)cn3c2NC2CCCCC2)ccc1OC	-20%
O=C(O)c1ccccc1C(=O)NCCCn1ccnc1	11%
Cc1ccc(C(=O)Nc2ccc(NC(=O)c3ccc(C)o3)cc2)o1	-21%
Brc1ccccc1CN1CCN(Cc2c[nH]c3ccccc23)CC1	-6%
CC12CCC(C)(O1)C1C(=O)N(c3nccs3)C(=O)C12 (configuration not stated)	0%
CCN(CC)C(=O)COc1coc(CN2CCN(c3ccccc3)CC2)cc1=O	-4%
COC(=O)c1cc(NC(=O)Cc2cc(OC)c(OC)c(OC)c2)cc(C(=O)OC)c1	-3%
COc1cc2c(c(OC)c1OC)-c1c(cc3c(c1OC)OCO3)CC(C)C(C)(O)C2OC(=O)c1ccccc1 (configuration not stated)	14%
COc1ccc(C(C)(C)C)cc1NC(=O)COC(=O)C(C)C	1%
O=S(=O)(c1ccc(Cl)cc1)N1CCCC(C(F)(F)F)C1 (configuration not stated)	0%
O=C(CS(=O)(=O)c1ccccc1)c1cc2ccccc2oc1=O	-11%
O=C(CCCc1nc2ccccc2s1)Nc1ccc(N2CCOCC2)cc1	-4%
CCOc1ccc(N2CC(C(=O)NCc3cccc(C)c3)CC2=O)cc1 (configuration not stated)	-26%
COc1ccc(CNc2nc(NCc3ccc(OC)c(OC)c3)n(C(=O)c3cccs3)n2)cc1OC	12%
Cc1cccc(NC(c2ccccc2C)c2ccc3ccc(C)nc3c2O)n1 (configuration not stated)	8%
Clc1cccc(CSc2nncn3c2cc2sccc23)c1	5%
Cc1ccc(S(=O)(=O)N2CCN(C(=O)COC(=O)c3ccc(Cl)c(S(N)(=O)=O)c3)CC2)c(C)c1	2%
(continued)
SMILES	VDR inhibitor
CCCCNS(=O)(=O)c1ccc2nc(SCC(N)=O)[nH]c2c1	0%
CCOCCCNC(=O)C1(O)c2cc(Br)ccc2NC(=O)N1c1cccc(OC)c1 (configuration not stated)	6%
COc1ccc(C(C(=O)NC2CCCC2)N2CCc3ccccc32)cc1 (configuration not stated)	-18%
CSc1ccccc1C(=O)Nc1cc2c(cc1C(=O)O)OCCCO2	-18%
O=[N+]([O-])c1ccc(OC/C=C2\Oc3ccc([N+](=O)[O-])cc3C2N2CCOCC2)cc1 (configuration not stated)	36%[activator]
Cc1c(NCc2cc(Cl)cc(Cl)c2O)c(=O)n(-c2ccccc2)n1C	-7%
Cn1ccsc1=NC(=O)c1ccc(S(C)(=O)=O)cc1	-6%
O=S(=O)(Nc1cc(Br)cc2cccnc12)c1cccc2ccccc12	1%
CC(=O)Nc1ccc(NC(=O)C(C)OC(=O)CCCc2c[nH]c3ccccc23)cc1 (configuration not stated)	19%
CN(C)CCNc1nc(-c2ccco2)c2c(c1C#N)CC(C)(C)OC2	-6%
O=[N+]([O-])c1cccc(/C=N/n2cnnc2)c1O	-10%
COc1ccc2c(c1)cc1c(=O)n(CC(=O)NC(C)CCc3ccccc3)nc(C)n12 (configuration not stated)	4%&20%
COCCSc1nc(N)c(NC(=O)c2ccco2)c(=O)[nH]1	6%
O=S(=O)(/N=C(/Nc1cccc2ccccc12)c1ccccc1)c1ccc(F)cc1	-10%
CCOC(=O)c1cc(-c2ccccc2)nc2c(O)cccc12	-5%
COc1ccccc1Oc1ccc(S(=O)(=O)N2CCCC2)cc1	1%
COC(=O)c1sccc1NC(=O)Nc1ccccc1Cl	7%

Screens: PubChem, National Center for Advancing Translational Sciences (NCATS)

Not all compounds are listed; rates above refer to the full screens.
